Vaccinia stage: Vaccinia orthopox stage-specific inhibition | actives 0.01% (n = 89,000) | activity change (mCherry), % (concentration not given with the values) | Vaccinia-infected cells, mCherry/Venus stage reporter fluorescence; hits give low values; some inactives read as strong as hits;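 active = mCherry past -33% and 40 or more points under the early reporter, replicates agreeing; inconclusive = past -33% without that gap or agreement; tested in A549 cells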;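 also: scaled between vehicle wells and reference inhibitor wells; 23 nL library stock went into each well; one replicate is shown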
Vaccinia stage Venus: also measured in Vaccinia stage; calls as there; activity change (Venus), %; measured here: Venus reporter, other viral stage;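 negative = less Venus signal; first of two replicates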
* hit, by the source's call; ? = inconclusive; · = no result given; & = joins results of further samples.

compound	Vaccinia stage	Vaccinia stage Venus
C[C@H](NC(=O)C[C@@H]1C[C@H]2c3cc(NS(=O)(=O)c4ccc(F)cc4)ccc3O[C@H]2[C@H](CO)O1)c1ccccc1	-18	2
O=C(C[C@@H]1C=C[C@H](NC(=O)Nc2ccc(F)cc2)[C@@H](CO)O1)NCCN1CCCC1	3	2
N#C[C@@H]1[C@@H](c2ccc(C3=CCCC3)cc2)[C@@H](CO)N1S(=O)(=O)c1ccccc1	9	15
COc1ccc(NC(=O)Nc2cccc3c2O[C@H](CN(C)C)[C@@H](C)CN([C@@H](C)CO)C3=O)cc1	11	5
CC=Cc1ccc2n(c1=O)C[C@@H]1[C@@H](CO)[C@H](C(=O)NCC)N(C(=O)c3cccnc3)[C@H]21 (mixture of isomers)	14	5
CO[C@@H]1CN(C)C(=O)c2cc(NC(=O)Nc3ccccc3F)ccc2OC[C@H](C)N(Cc2ccccc2C(=O)O)C[C@H]1C	3	6
CCCN(C)C[C@H]1Oc2cc(/C=C/c3ccccc3)ccc2S(=O)(=O)N([C@H](C)CO)C[C@H]1C	?	·
COC(=O)C(CC#Cc1ccc2c(c1)[C@]1(C(=O)N2)[C@H](c2ccc(OCCO)cc2)N2[C@H](c3ccccc3)[C@H](c3ccccc3)OC(=O)[C@H]2[C@@H]1C(=O)NC[C@H](O)c1ccccc1)C(=O)OC	11	-3
COCCOC(=O)N1C(=O)[C@@]2(c3cc(C#CC4(O)CCCCCC4)ccc31)[C@H](C(=O)N1CCN(c3ncccn3)CC1)[C@H]1C(=O)O[C@H](c3ccccc3)[C@H](c3ccccc3)N1[C@@H]2c1ccccc1OCCO	-4	-3
C[C@@H]1CN([C@@H](C)CO)C(=O)c2cc(NC(=O)NC3CCCCC3)ccc2O[C@H]1CN(C)S(=O)(=O)c1cn(C)cn1	4	0
Cc1ccc(S(=O)(=O)N[C@H]2CC[C@@H](CCNS(=O)(=O)Cc3ccccc3)O[C@H]2CO)cc1	-5	1
C[C@@H]1CCCCO[C@@H](CN(C)Cc2ccc(Cl)c(Cl)c2)[C@H](C)CN([C@H](C)CO)C(=O)c2cc(NS(=O)(=O)c3cccs3)ccc2O1	?	·

Random excerpt: four compounds from above.
compound	Vaccinia stage	Vaccinia stage Venus
CCCN(C)C[C@H]1Oc2cc(/C=C/c3ccccc3)ccc2S(=O)(=O)N([C@H](C)CO)C[C@H]1C	?	·
Cc1ccc(S(=O)(=O)N[C@H]2CC[C@@H](CCNS(=O)(=O)Cc3ccccc3)O[C@H]2CO)cc1	-5	1
O=C(C[C@@H]1C=C[C@H](NC(=O)Nc2ccc(F)cc2)[C@@H](CO)O1)NCCN1CCCC1	3	2
COCCOC(=O)N1C(=O)[C@@]2(c3cc(C#CC4(O)CCCCCC4)ccc31)[C@H](C(=O)N1CCN(c3ncccn3)CC1)[C@H]1C(=O)O[C@H](c3ccccc3)[C@H](c3ccccc3)N1[C@@H]2c1ccccc1OCCO	-4	-3

The list continues.
compound	Vaccinia stage	Vaccinia stage Venus
O=C(Nc1ccccc1F)N[C@H]1CC[C@@H](CCNC(=O)C2CCC2)O[C@@H]1CO	5	13
C[C@@H]1CN([C@H](C)CO)S(=O)(=O)c2ccc(C#Cc3ccc(F)cc3)cc2O[C@@H]1CN(C)S(=O)(=O)c1cn(C)cn1	?	·
OC[C@@H]1[C@H](c2ccc(C#Cc3ccccc3)cc2)[C@@H]2CN(Cc3cncnc3)CCCCN12	-9	-9
COc1ccc(-c2ccc([C@@H]3[C@H]4CN(Cc5ccccc5)CC(=O)N4[C@H]3CO)cc2)cc1	7	3
C[C@@H]1CCCCO[C@@H](CN(C)C(=O)CCCN(C)C)[C@H](C)CN([C@H](C)CO)C(=O)c2cc(NC(=O)Cc3ccccc3)ccc2O1	22	9
O=C(NC1CCC1)[C@H]1[C@H](CO)[C@H]2Cn3c(ccc(-c4ccccc4F)c3=O)[C@@H]1N2C(=O)CC1CC1	16	12
COCC(=O)Nc1ccc2c(c1)C(=O)N(C)C[C@@H](OC)[C@H](C)CN(Cc1cccnc1)[C@@H](C)CO2	7	11
C[C@@H]1CN([C@@H](C)CO)C(=O)c2cc(NC(=O)C3CCCCC3)ccc2O[C@@H](C)CCCCO[C@@H]1CN(C)C(=O)Nc1ccccc1	2	-7
C[C@H](CO)N1C[C@H](C)[C@@H](CN(C)C(=O)CC2CC2)Oc2ncc(C#Cc3cccnc3)cc2C1=O	10	13
Cc1cccc(-c2ccc([C@H]3[C@H](CO)N4C(=O)CN(C(=O)CN5CCOCC5)C[C@@H]34)cc2)c1	-3	-7
C[C@H](CO)N1C[C@H](C)[C@H](CN(C)C(=O)c2ccncc2)Oc2cc(C3=CCCCC3)ccc2S1(=O)=O	-5	-3
O=C(Cc1ccncc1)N1CC(=O)N2[C@@H](CO)[C@H](c3ccc(Br)cc3)[C@@H]2C1	12	7
C[C@H]1CN([C@@H](C)CO)C(=O)CCCn2nncc2CO[C@H]1CN(C)C(=O)Nc1cccc2ccccc12	6	9
C[C@@H]1CN([C@@H](C)CO)C(=O)c2cc(-c3ccc(F)cc3)cnc2O[C@H]1CN(C)Cc1ccccn1	-4	-4
O=C(NC1CCCC1)N1CC(=O)N2[C@H](C1)[C@@H](c1ccc(-c3ccc(F)cc3)cc1)[C@@H]2CO	?	·
C[C@@H]1CN([C@@H](C)CO)C(=O)c2cc(NC(=O)c3ccccc3)ccc2O[C@@H](C)CCCCO[C@@H]1CN(C)CC1CCCCC1	?	·
COC(=O)[C@H]1[C@H](CO)[C@H]2Cn3c(ccc(-c4ccncc4)c3=O)[C@H]2N1CC1CCCC1	10	5
COCC#Cc1cnc2c(c1)C(=O)N([C@@H](C)CO)C[C@H](C)[C@@H](CN(C)C(=O)Cc1ccccc1)O2	42	16
C[C@@H]1CN([C@H](C)CO)C(=O)c2cc(/C=C/c3ccccc3)cnc2O[C@H]1CN(C)C(=O)NC1CCCCC1	-14&-35	-12&-19
O=C(CC(F)(F)F)N1C[C@H]2[C@@H](c3ccccc31)[C@@H](CO)N2C(=O)C1CCCC1	10	8
CCS(=O)(=O)Nc1ccc2c(c1)C(=O)N(C)C[C@@H](OC)[C@H](C)CN(Cc1ccccn1)[C@H](C)CO2	9	11
CC=Cc1ccc2n(c1=O)C[C@@H]1[C@@H](CO)[C@H](C(=O)NC3Cc4ccccc4C3)N(CC3CC3)[C@H]21 (mixture of isomers)	3	6
COc1ccc(CN(C)C[C@@H]2Oc3ccc(NC(=O)Nc4c(C)noc4C)cc3CC(=O)N([C@@H](C)CO)C[C@@H]2C)cc1	8	-2
COc1ccccc1CNC(=O)C[C@@H]1CC[C@@H]2[C@H](COC[C@H](O)CN2C(=O)Nc2ccc(C(F)(F)F)cc2)O1	?	·
CN(C)CC#Cc1ccc([C@H]2[C@H](CO)N3CCCCN(C(=O)NC4CCCC4)C[C@@H]23)cc1	1	0
COc1ccc2c3c(n(C)c2c1)[C@@H](CO)N(Cc1ccc(Cl)cc1)CC31CCN(C(=O)NC(C)C)CC1	-9	-5
Cc1ccccc1S(=O)(=O)NCC[C@@H]1CC[C@H](NC(=O)C2CCCCC2)[C@@H](CO)O1	5	1
C[C@H](CO)N1C[C@H](C)[C@H](CN(C)Cc2ccccn2)Oc2ncc(-c3cccc(F)c3)cc2C1=O	3	2
Cc1ccc(S(=O)(=O)N(C)C[C@H]2Oc3c(NC(=O)c4ccncc4)cccc3C(=O)N([C@@H](C)CO)C[C@H]2C)cc1	-8	-1
C[C@@H]1CN([C@@H](C)CO)C(=O)c2cc(NC(=O)c3ccncc3)ccc2O[C@@H]1CN(C)C(=O)Nc1ccc(F)cc1	6	7
C[C@@H]1CN([C@H](C)CO)C(=O)c2cccc(NC(=O)Nc3ccccc3)c2O[C@@H]1CN(C)Cc1ccccc1	0	0
C[C@H](CO)N1C[C@H](C)[C@@H](CN(C)S(=O)(=O)c2ccccc2)OCCCC[C@H](C)Oc2ccc(NC(=O)CCC(F)(F)F)cc2C1=O	-2	-8
C[C@@H]1CN([C@@H](C)CO)C(=O)c2cccc(NS(=O)(=O)c3ccc(Cl)cc3)c2O[C@H]1CN(C)C(=O)NC1CCCCC1	3	-3
CO[C@@H]1CN(C)C(=O)c2cc(NC(C)=O)ccc2OC[C@@H](C)N(CCC(F)(F)F)C[C@@H]1C	-7	-2
CCCNC(=O)N(C)C[C@H]1Oc2cc(C#CC(C)(C)O)ccc2S(=O)(=O)N([C@@H](C)CO)C[C@H]1C	7	12
C[C@@H]1CN([C@@H](C)CO)C(=O)c2cccc(NC(=O)c3ccc(-c4nccs4)cc3)c2O[C@H]1CN(C)Cc1ccc(Oc2ccccc2)cc1	-9	-21
CN1c2ccc(-c3ccc(F)cc3)cc2[C@H]2[C@H](CCN2C(=O)Cc2cccnc2)[C@@H]1CO	-2	-3
C[C@@H]1CCCCO[C@H](CN(C)S(=O)(=O)c2cccs2)[C@@H](C)CN([C@H](C)CO)C(=O)c2cc(NS(=O)(=O)c3cccs3)ccc2O1	17	13
O=C(C[C@H]1C[C@@H]2c3cc(NC(=O)c4ccc5c(c4)OCO5)ccc3O[C@@H]2[C@@H](CO)O1)NC1CCCCC1	-11	-3
C[C@H](CO)N1C[C@H](C)[C@@H](CN(C)C(=O)c2cc(-c3ccccc3)on2)OCc2cn(nn2)CCCC1=O	11	9
CN(C)CC#Cc1ccc([C@H]2[C@@H](CO)N3CCCCN(CC4CC4)C[C@@H]23)cc1	24	17
C[C@@H]1CN([C@@H](C)CO)C(=O)c2cc(C#CC3CCCCC3)cnc2O[C@H]1CN(C)S(=O)(=O)c1ccc(F)cc1	-10	-5
COc1ccc(S(=O)(=O)N2[C@@H]3CNC[C@H]2C3c2ccc(-c3ccncc3)cc2)cc1 (stereo partly specified)	-5	-13
CO[C@H]1CN(C)C(=O)c2ccc(NC(=O)C3CCCC3)cc2OC[C@@H](C)N(C(C)=O)C[C@@H]1C	7	4
C[C@H]1CN([C@@H](C)CO)C(=O)Cc2cc(N(C)C)ccc2O[C@@H]1CN(C)S(=O)(=O)c1ccc(Cl)cc1	3	10
O=C(Nc1ccc(F)cc1)N[C@H]1C=C[C@H](CC(=O)N2CCCCC2)O[C@H]1CO	10	10
C[C@@H]1CN([C@@H](C)CO)C(=O)CCCn2nncc2CO[C@@H]1CN(C)S(=O)(=O)c1ccc(-n2cccn2)cc1	-1	0
CC(C)NC(=O)Nc1ccc2c(c1)CC(=O)N([C@H](C)CO)C[C@H](C)[C@H](CN(C)CC1CC1)O2	19	11
CO[C@@H]1CN(C)C(=O)c2ccc(NS(=O)(=O)CC(F)(F)F)cc2OC[C@H](C)N(Cc2nccs2)C[C@@H]1C	8	14
COCCN(C[C@@H]1N[C@@H](CO)[C@H]1c1ccc(-c2cccnc2)cc1)C(C)=O	7	8
C[C@@H]1CCCCO[C@@H](CN(C)C(=O)Nc2ccccc2)[C@H](C)CN([C@@H](C)CO)C(=O)c2cc(NC(=O)Nc3cccc4ccccc34)ccc2O1	24	16
C[C@@H]1CN([C@@H](C)CO)C(=O)c2cc(-c3ccc(C#N)cc3)cnc2O[C@H]1CN(C)Cc1ccccn1	-11	-6
C[C@@H]1CN([C@@H](C)CO)C(=O)Cc2cc(NC(=O)Nc3ccc(C(F)(F)F)cc3)ccc2O[C@H]1CN(C)S(=O)(=O)c1cccs1	-28	-2
O=C(NCC[C@H]1CC[C@H](NS(=O)(=O)c2ccccc2F)[C@@H](CO)O1)c1ccc(F)cc1	-4	-3
COC(=O)C[C@H]1CC[C@H]2[C@@H](COC[C@H](O)CN2CCC(F)(F)F)O1	-2	8
C[C@@H]1CCCCO[C@H](CN(C)C(=O)Nc2ccc3c(c2)OCO3)[C@H](C)CN([C@@H](C)CO)C(=O)c2cc(NC(=O)CCCN(C)C)ccc2O1	4	1
C[C@@H]1CN([C@@H](C)CO)C(=O)c2cc(Br)cnc2O[C@H]1CN(C)Cc1cccc(C(=O)O)c1	26	21
O=C(NC[C@H]1N[C@H](CO)[C@H]1c1ccccc1)C1CC1	17	10
O=C(c1cnccn1)N1CC(=O)N2[C@H](C1)[C@@H](c1ccc(C#CCC3CCCC3)cc1)[C@@H]2CO	?	·
CCCN1C[C@H](C)[C@@H](OC)CN(C)C(=O)c2ccc(NC(=O)c3cnccn3)cc2OC[C@@H]1C	4	5

(further entries)
compound	Vaccinia stage	Vaccinia stage Venus
COCc1cn(CC[C@@H]2CC[C@H](NC(=O)Nc3ccc(C(F)(F)F)cc3)[C@H](CO)O2)nn1	-4	-5
C[C@H]1CN([C@@H](C)CO)C(=O)c2cc(NS(=O)(=O)c3cn(C)cn3)ccc2O[C@H]1CN(C)S(=O)(=O)c1ccccc1	10	7
C[C@H]1CN([C@@H](C)CO)C(=O)Cc2cc(NS(C)(=O)=O)ccc2O[C@H]1CN(C)S(C)(=O)=O	-3	15
COc1ccc(NC(=O)Nc2cccc3c2O[C@H](CN(C)S(=O)(=O)c2cccs2)[C@@H](C)CN([C@H](C)CO)C3=O)cc1	10	16
C[C@H](CO)N1C[C@H](C)[C@@H](CN(C)Cc2ccc(Cl)c(Cl)c2)Oc2ccc(NC(=O)Nc3ccccc3)cc2CC1=O	?	·
Cc1ccc(S(=O)(=O)N[C@H]2CC[C@@H](CC(=O)NCc3ccc(Cl)c(Cl)c3)O[C@H]2CO)cc1	-16	-14

Three consecutive entries out of the list so far:
compound	Vaccinia stage	Vaccinia stage Venus
C[C@H](NC(=O)C[C@@H]1C[C@H]2c3cc(NS(=O)(=O)c4ccc(F)cc4)ccc3O[C@H]2[C@H](CO)O1)c1ccccc1	-18	2
O=C(C[C@@H]1C=C[C@H](NC(=O)Nc2ccc(F)cc2)[C@@H](CO)O1)NCCN1CCCC1	3	2
N#C[C@@H]1[C@@H](c2ccc(C3=CCCC3)cc2)[C@@H](CO)N1S(=O)(=O)c1ccccc1	9	15

Screens: PubChem, Broad Institute

A portion of the library. The share of hits here may be higher or lower than overall.
